TRPML1 ag: agonists of human TRPML1 channel; TRPML1-expressing cells, Ca2+ dye fluorescence, FDSS; host cell line not named in the record; reference of the full effect not given here; 410,000 tested, 0.12% active; activation, % (test concentration not listed); in the data active = activation above about 50%; inconclusive = about 30% to 50%; inactive = below about 30%; also: 0% is about no effect; the text of the record puts the active cut at 80%
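Agonist activity was taken from a 110 s kinetic Ca2+ dye read on the FDSS after pinning compounds onto TRPML1-DL cells. The cells were seeded at 1,500/well with Tet inducer, incubated about 16 h, then dye-loaded at room temperature.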
PINK1 expr mod: PINK1 expression modulation | AID 624263 | Potency, µM (doses to about 76.6 µM), inactives show at the highest dose activation (PINK1 increase), most hits filed as activators | PINK1 immunofluorescence, high-content cytometry, 24 h | 410,000 tested, 0.2% active; active = well fitted activation curve with a large enough effect; inconclusive = small, poorly fitted or top-dose-only effect; inactive = flat fitted curve, though single readings scatter; cell line not stated here;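 also: potency is read from the fitted curve at half-maximal effect; % of control where 0% means no effect; nearly all actives have a fitted effect of over 65% in size; a mitochondrial uncoupler was the plate control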
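Readout is PINK1 immunofluorescence, quantified alongside mitochondrial, cell and nuclear markers by laser-scanning microplate cytometry. Cells from a stable line were exposed to compound titrations (5 concentrations) for 24 hours, with CCCP controls.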
D2 potentiator: potentiates the human D2 dopamine receptor allosterically; potentiation, % (no concentration beside the values); P14416; DiscoveRx D2 beta-arrestin cells, luminescence, 90 min; 100% = 57 uM dopamine signal; 360,000 tested, 0.23% active; active = potentiation of 50% or more; inconclusive = 30% to 50%; inactive = 30% or less;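 also: compound concentration not given in the record; tested on top of an EC20 dose of dopamine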
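PathHunter D2 cells, attached overnight at 37 deg C, received compound in DMSO plus dopamine at EC20 (50 nM final) for 90 min at 37 deg C. Beta-arrestin recruitment was read as luminescence after 1 h with detection reagent at ambient temperature.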
CtBP-E1A blk: CtBP/E1A binding inhibition; AlphaScreen GST-E1A/His-CtBP binding, 1536-well; active compounds read low; control for the full effect not named in the record; activity change, % (concentration not given with the values); 340,000 tested, 0.49% active; in the data active means activity change below about -65%; inconclusive means about -30% to -65%; inactive means above about -30%; also: % is scaled to controls: 0 for no effect and ±100 for the full control effect
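GST-E1A and His-tagged CtBP (125 nM each as 5X stock) were preincubated with pin-transferred compound for 2 h at 37 °C in the dark, then glutathione donor and nickel acceptor beads were added for 1 h before AlphaScreen reading.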
Six1-Eya2 blk: blocks human Six1 binding to Eya2; AlphaScreen GST-Six1/His-Eya2 binding, biochemical; active compounds read low; control for the full effect not named in the record; activity change, % (test concentration not listed); 360,000 tested, 0.56% active; in the data active = activity change below about -65%; inconclusive = about -30% to -65%; inactive = above about -30%; also: % is scaled to controls: 0 for no effect and ±100 for the full control effect
Target sequence (O00167 whole entry, looked up): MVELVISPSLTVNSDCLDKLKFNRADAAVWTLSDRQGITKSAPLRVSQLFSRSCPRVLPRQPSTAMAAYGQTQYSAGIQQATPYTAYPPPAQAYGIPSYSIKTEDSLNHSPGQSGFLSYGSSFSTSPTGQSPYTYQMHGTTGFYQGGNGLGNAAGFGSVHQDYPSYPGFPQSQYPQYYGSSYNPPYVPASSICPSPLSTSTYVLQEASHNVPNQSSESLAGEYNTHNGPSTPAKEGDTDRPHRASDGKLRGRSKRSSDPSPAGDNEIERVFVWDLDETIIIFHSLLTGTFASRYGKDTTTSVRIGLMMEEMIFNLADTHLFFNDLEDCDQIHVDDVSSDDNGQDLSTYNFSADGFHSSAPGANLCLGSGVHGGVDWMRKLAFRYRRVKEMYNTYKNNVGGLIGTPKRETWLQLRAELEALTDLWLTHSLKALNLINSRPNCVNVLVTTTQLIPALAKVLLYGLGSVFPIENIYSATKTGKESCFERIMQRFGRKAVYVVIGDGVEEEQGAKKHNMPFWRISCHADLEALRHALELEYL
Target sequence (Q15475 whole entry, looked up): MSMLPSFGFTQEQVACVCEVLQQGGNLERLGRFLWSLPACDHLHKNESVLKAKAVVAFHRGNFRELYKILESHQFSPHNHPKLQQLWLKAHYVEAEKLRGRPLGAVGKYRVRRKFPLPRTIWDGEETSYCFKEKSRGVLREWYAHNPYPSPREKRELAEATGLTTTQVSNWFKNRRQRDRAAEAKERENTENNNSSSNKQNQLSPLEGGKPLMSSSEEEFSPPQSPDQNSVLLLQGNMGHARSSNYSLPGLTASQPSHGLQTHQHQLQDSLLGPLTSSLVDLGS
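AlphaScreen luminescence read after one hour at 37 °C in darkness. Pin-transferred compounds met GST-Six1 and His-Eya2 protein (5X stock 250 nM/500 nM) plus glutathione donor and Ni-chelate acceptor beads (5X, 50 ug/mL).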
D2 agonist: human D2 receptor agonism in beta-arrestin assay; P14416; DiscoveRx PathHunter D2 beta-arrestin, luminescence, 90 min; 100% = 57 uM dopamine signal; activation, % (concentration not given with the values); 360,000 tested, 0.084% active; AID 624465; in the data active = activation above about 40%; inconclusive = about 15% to 40%; inactive = below about 15%; also: compound concentration not given in the record; the text of the record calls up to 30% inactive
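DiscoveRx PathHunter D2 beta-arrestin cells (2,100/well) attached overnight, then compound-stimulated 90 min at 37 C in HBSS/10 mM HEPES/0.1% Tween-20 buffer; beta-galactosidase complementation read by luminescence after 1 h at ambient temperature. Dopamine 57 uM final (EC100) as control.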
The depositor's hits bear a star; u = inconclusive; x = no result given; [ ] = remark or other dose. Hits appear at their usual frequency, and some 1.3% of all compounds hit somewhere here.

The first two entries, ahead of the listing:
SMILES	TRPML1 ag	PINK1 expr mod	D2 potentiator	CtBP-E1A blk	Six1-Eya2 blk	D2 agonist
CCOC(=O)CC1(NC(=O)C2CCC(=O)N(Cc3ccccc3F)C2)CCCCC1 (stereo not drawn)	0.3	-0.6%	-8	-12	6	0.3
CC(C)[C@H](N)C(=O)NC[C@H](CC(=O)NC[C@H]1CC[C@H](C(=O)O)CC1)c1ccc(Cl)cc1	-0.6	-0.4%	-9	6	-2	-5.2

Main list, previewed entries included:
SMILES	TRPML1 ag	PINK1 expr mod	D2 potentiator	CtBP-E1A blk	Six1-Eya2 blk	D2 agonist
CCOC(=O)CC1(NC(=O)C2CCC(=O)N(Cc3ccccc3F)C2)CCCCC1 (stereo not drawn)	0.3	-0.6%	-8	-12	6	0.3
CC(C)[C@H](N)C(=O)NC[C@H](CC(=O)NC[C@H]1CC[C@H](C(=O)O)CC1)c1ccc(Cl)cc1	-0.6	-0.4%	-9	6	-2	-5.2
Cc1cc(C)cc(NC(=O)CSc2nnc(CNC(=O)c3ccco3)o2)c1	0.2	-0.8%	-10	6	6	-7.5
CCn1cc(CNC(=O)c2cccc([N+](=O)[O-])c2)c(C)n1	-0.3	-0.5%	-17	20	7	-0.4
CCCn1c(SCC(=O)Nc2cccc(NC(C)=O)c2)nnc1C(C)C	-0.5	1.6%	2	2	1	-2.7
S=C(Nc1ccc(Cl)cc1Cl)N1CCCC1	-0.1	1.6%	-7	0	5	0.8
CC(=O)Nc1c(Cl)n(C(C)=O)c2ccccc12	-0.2	-3.4%	-11	-10	u	-1.7
COc1cccc(CC(=O)n2nc(N)c3cc4ccc(OC)cc4nc32)c1	-0.9	14%	-2	6	-11	-1.1
Cc1cc(=O)oc2cc(O)cc(O)c12	-0.5	3.6%	-5	-14	-21	6.3
CCN(Cc1ccc(OC)c(COC)c1)CC1CCCN(CCc2cccc(F)c2)C1 (stereo not drawn)	-0.4	2.9%	-3	0	1	-4.1
Cc1ccc(C)c(NC(=O)COC(=O)CSc2ccccc2)c1	-2.0	1.8%	-9	x	0	-4.5
CCCCN1C(=O)C2NN=C(C(=O)OCC)C2C1=O (stereo not drawn)	0.2	3.0%[38.3 µM]	-6	8	2	-1.1
CCN1CCCn2c1nc1c2c(=O)n(C)c(=O)n1C	-0.1	1.7%	-15	5	-19	1.2
COC(=O)c1sc(NC(=O)CN2CCN(c3cccc(Cl)c3)CC2)c(C(=O)OC)c1C	-0.8	2.7%	-3	3	0	0.0
C/C(=N\NC(=O)c1nc2ccccn2c1C)c1ccc2c(c1)OCO2	-0.2	0.9%	3	-10	11	-5.0
O=C(O)CN1C(=O)c2cccc(Oc3ccc(Cl)cc3)c2C1=O	-0.4	0.5%	6	-2	-4	-1.3
Cn1c(C(=O)N[C@@H](C(=O)O)c2ccccc2)cc2cc(Cl)ccc21	-0.4	-1.8%	-5	1	5	-1.0
CC(C)c1ccccc1NC(=O)COC(=O)c1cc(=O)[nH]c(=O)[nH]1	0.5	-0.2%	-10	13	1	-3.9
COc1ccc2[nH]c(C(=O)NCCN3CCOCC3)cc2c1	0.0	1.1%	-18	x	-3	-4.1
CC(C)C[C@@H](CN1CCC[C@H]1CN1C(=O)C(=O)NC[C@@H]1Cc1ccccc1)N1C[C@H](Cc2ccc(O)cc2)N(CC2CCCCCC2)C(=O)C1=O	-0.1	4.1%	x	-25	8	x
Cc1ccc(NC(=O)c2ccc(COc3ccc4c(c3)CCC4)cc2)c(C)c1	-0.8	-1.1%	-1	2	-9	-0.6
COCc1cc(C)nc(N/N=C/c2ccc(-c3ccc(Cl)cc3[N+](=O)[O-])o2)c1C#N	-0.6	6.1%	-5	0	-11	5.2
O=C(NNC(=O)C1CC1)c1cc2cc3ccccc3nc2s1	-0.9	1.0%	-4	x	-14	8.4
O=C(NCC(c1ccco1)N1CCOCC1)c1ccc(Cl)cc1 (stereo not drawn)	-0.2	8.3%	-29	7	-4	-5.3

Reprinted from the results shown, 12 compounds:
SMILES	TRPML1 ag	PINK1 expr mod	D2 potentiator	CtBP-E1A blk	Six1-Eya2 blk	D2 agonist
CCOC(=O)CC1(NC(=O)C2CCC(=O)N(Cc3ccccc3F)C2)CCCCC1 (stereo not drawn)	0.3	-0.6%	-8	-12	6	0.3
CC(C)[C@H](N)C(=O)NC[C@H](CC(=O)NC[C@H]1CC[C@H](C(=O)O)CC1)c1ccc(Cl)cc1	-0.6	-0.4%	-9	6	-2	-5.2
Cc1cc(C)cc(NC(=O)CSc2nnc(CNC(=O)c3ccco3)o2)c1	0.2	-0.8%	-10	6	6	-7.5
CCn1cc(CNC(=O)c2cccc([N+](=O)[O-])c2)c(C)n1	-0.3	-0.5%	-17	20	7	-0.4
CCCn1c(SCC(=O)Nc2cccc(NC(C)=O)c2)nnc1C(C)C	-0.5	1.6%	2	2	1	-2.7
S=C(Nc1ccc(Cl)cc1Cl)N1CCCC1	-0.1	1.6%	-7	0	5	0.8
CC(=O)Nc1c(Cl)n(C(C)=O)c2ccccc12	-0.2	-3.4%	-11	-10	u	-1.7
COc1cccc(CC(=O)n2nc(N)c3cc4ccc(OC)cc4nc32)c1	-0.9	14%	-2	6	-11	-1.1
Cc1cc(=O)oc2cc(O)cc(O)c12	-0.5	3.6%	-5	-14	-21	6.3
CCN(Cc1ccc(OC)c(COC)c1)CC1CCCN(CCc2cccc(F)c2)C1 (stereo not drawn)	-0.4	2.9%	-3	0	1	-4.1
Cc1ccc(C)c(NC(=O)COC(=O)CSc2ccccc2)c1	-2.0	1.8%	-9	x	0	-4.5
CCCCN1C(=O)C2NN=C(C(=O)OCC)C2C1=O (stereo not drawn)	0.2	3.0%[38.3 µM]	-6	8	2	-1.1

More records:
SMILES	TRPML1 ag	PINK1 expr mod	D2 potentiator	CtBP-E1A blk	Six1-Eya2 blk	D2 agonist
COc1ccccc1S(=O)(=O)Nc1cc(C)nn1-c1ccc(C)cc1	0.1	1.9%	-1	-2	-12	1.4
N#Cc1c(SCC(=O)N2CCCCC2)nsc1SCC(=O)N1CCCCC1	0.3	0.0%	-1	4	2	2.2
COc1ccccc1NC(=O)CSc1n[nH]c(-c2cccnc2)n1	1.0	2.5%	1	-6	0	-1.2
CN(C)C(CNC(=O)c1ccc2nc[nH]c2c1)c1ccccc1 (stereo not drawn)	1.7	1.6%	-15	10	3	-19
CCN(CC(=O)NC(C)(C)C)C(=O)CCl	0.3	-1.9%	12	-2	7	1.5
CCOc1ccc(CCNC(=O)C2CCCN(c3nn4c(=O)cc(C)nc4s3)C2)cc1OCC (stereo not drawn)	2.0	-0.8%	6	-2	-1	-1.0
CCOP(=O)(OCC)C(NC(=O)Nc1ccc(Cl)c(Cl)c1)c1ccccc1 (stereo not drawn)	0.9	28%	-30	-3	-8	-2.7
CN(CC(=O)N1CCN(c2ncccn2)CC1)S(=O)(=O)c1ccc(Cl)cc1	0.0	-0.4%	-6	3	-1	-2.0
N#Cc1nc(-c2ccco2)oc1NCc1ccc(F)cc1	-0.2	-0.1%	-8	-6	-12	-6.1
O=C(NCCc1ccccc1)C(c1ccccc1F)N(C(=O)c1csnn1)C1CC1 (stereo not drawn)	-0.7	2.4%	-6	5	8	1.0
CSc1ccccc1C(=O)NCc1ccc(F)cc1	0.2	0.2%	-8	x	0	-5.7
Cc1cccc(NC(=O)/C(=C\c2ccc([N+](=O)[O-])o2)NC(=O)c2ccc(Cl)cc2)c1	0.8	3.8%	-16	-11	-21	1.5
O=C(O)c1ccc(/C=C2\CCCc3c2nc2ccccc2c3C(=O)O)cc1	1.0	2.0%	-4	-2	-10	-1.3
CC(=O)N1N=C(c2ccccc2)CC1c1cn(Cc2ccccc2)c2ccccc12 (stereo not drawn)	0.0	11%	-15	-22	-24	4.8
O=C(COc1ccccc1)NCC1(N2CCCCC2)CCCCC1	-0.2	0.4%	-3	1	-4	-6.2
CCC(=O)NC(=S)Nc1ccc(NC(=O)CC)cc1	0.8	0.2%	-13	1	2	-3.8
COC(=O)c1nc(NC(=O)c2ccc(C(C)(C)C)cc2)n[nH]1	-0.3	3.3%	15	0	5	4.0
CC(=O)NC(C(=O)N1CCC(c2nc3ccccc3s2)CC1)C(C)C (stereo not drawn)	-0.5	0.3%	-10	-20	-7	-2.2
Cc1ccc(NC2CCCN(C(=O)c3ccoc3)C2)cc1C (stereo not drawn)	0.7	-0.7%	-10	-10	2	-0.9
COc1ccc(C(=O)COC(=O)CCn2nnc(-c3cccs3)n2)cc1	1.9	2.2%[38.3 µM]	-1	5	1	-1.0
CCOC(=O)C(=O)Nc1sc(C(=O)N2CCOCC2)c(C)c1C#N	-0.2	-1.4%	3	-18	0	-1.4
C/C=C(/C)C(=O)O[C@@H]1Cc2c(ccc3ccc(=O)oc23)OC1(C)C	2.5	-0.4%	-8	5	1	0.0
CN(Cc1cn(C)nc1-c1cccc(Cl)c1)CC1CCCCO1 (stereo not drawn)	0.0	2.8%	-4	6	8	3.6
CC(Nc1ccc2c(c1)OCCO2)C(=O)N1CCc2ccccc21 (stereo not drawn)	0.0	-2.3%	-3	-9	-16	2.2
NS(=O)(=O)c1ccc(CCNC(=O)CSc2ccc(Cl)cc2Cl)cc1	1.1	1.6%	-3	4	1	3.7
O=C(Nc1ccc(F)c(F)c1)c1cccnc1	0.4	0.3%	-10	-4	-8	-2.3
S=C1SCN(Cc2ccccc2)CN1Cc1ccccc1	3.6	0.5%	-3	3	5	0.4
NC(c1csc(NC(=O)c2cccc(OC(F)(F)F)c2)n1)c1ccccc1Cl (stereo not drawn)	1.4	u	-17	0	0	-3.8
O=C(/C=C/c1ccco1)c1cccnc1	0.1	3.1%	-18	x	-2	2.3
CC1CCC2(CC1)NC(=O)N(NC(=O)CSc1nnc(NC3CC3)s1)C2=O (stereo not drawn)	0.0	-1.5%	-4	x	3	-3.9
COc1ccc([C@H]2N[C@]3(CCCN(Cc4ccc(Br)cc4)C3=O)[C@H]3C(=O)N(Cc4ccccc4)C(=O)[C@@H]23)cc1	1.4	1.4%	5	5	-7	-10
COCCn1cnnc1SCC(=O)Nc1cccc(S(=O)(=O)N2CCCCCC2)c1	2.0	3.8%	-9	1	21	-5.3
COc1ccc(CN(CCC#N)CCC2(c3ccccc3)CC(C)N(C)CC2C)cc1OC (stereo not drawn)	0.5	-1.0%	-6	2	-1	-2.0
CCN(CC)C(=O)c1cccc(-c2csc(C(NC(C)=O)c3cccc(OC)c3)n2)c1 (stereo not drawn)	-1.0	-0.6%	-4	-18	-5	-2.1
CN1CCN(S(=O)(=O)c2ccc(NC(=S)NC(=O)c3ccc(Cl)cc3)cc2)CC1	-0.4	1.5%	-18	-26	u	-8.6
N#CC1(NC(=O)CSc2nnc(Cc3ccccc3)o2)CCCCC1	-0.2	-1.5%	-4	x	5	-4.4
Cc1ccc(N=C2C(=S)N(c3ccc(C)cc3)C(=N)N2/N=C/c2ccc(Cl)cc2)cc1	-0.8	0.4%	-10	-12	-20	-5.0
Cc1ccsc1/C=N/NC(=O)c1nnn(-c2nonc2N)c1CN(C)c1ccccc1	-0.4	-0.6%	-3	-22	-13	-3.7
CCCNC(=O)C1(C)CCN1C(=O)C/C=C/c1ccccc1 (stereo not drawn)	-0.6	1.5%	-10	-13	5	-5.9
O=C(NCCCN1CCOCC1)c1cc(-c2cccs2)on1	0.8	4.1%[38.3 µM]	-3	30	-7	0.9
COc1ccc2c(-c3ccccc3)cc(SCC(=O)N(C)C)nc2c1	2.3	1.7%	-2	1	-1	1.1

Compound activity (PubChem BioAssay)
